Screens (PubChem)
VACV mCherry inh = vaccinia inhibition (mCherry reporter); Vaccinia virus mCherry reporter infection, fluorescence; about a quarter of the inactives have no number; Potency, µM (top dose mostly 36.5 µM), for the others: at the highest dose activity change, negative = inhibition, actives largely listed as inhibitors; 310,000 compounds, 0.63% hits; AID 720579; active = well fitted inhibition curve with a large enough effect; inconclusive = small, poorly fitted or top-dose-only effect; inactive = no such curve, though single readings can be large or run the other way; tested in A549 cells; further: nearly all actives have a fitted effect of over 35% in size; inactives centre near -10
VACV Venus inh = inhibitors of vaccinia virus (Venus reporter); Potency, µM (doses to about 36.5 µM), without a hit: top-dose activity change, negative = inhibition, most hits filed as inhibitors; 330,000 compounds, 0.46% hits; Vaccinia virus Venus reporter expression, fluorescence; active means well fitted inhibition curve with a large enough effect; inconclusive means small, poorly fitted or top-dose-only effect; inactive means no such curve, though single readings can be large or run the other way; tested in A549 cells; further: nearly all actives have a fitted effect of over 30% in size; inactives centre near -10
The depositor's hits bear a star; i = inactive; ? = inconclusive; . = not tested or not shown; & = joins results of further samples; [ ] = remark or other dose. On the % scale 0 is the no-effect control and ±100 the full control effect; potency means the concentration at half of the fitted maximal effect.

SMILES,VACV mCherry inh,VACV Venus inh
Cc1cccc(NC(=O)C2CCN(S(=O)(=O)c3cccc4nsnc34)CC2)n1,-16.6%,-14.5%
O=C1CCNCCN1[C@H](CO)Cc1ccccc1,-13.6%,2.3%&-14.6%
O=c1cc(CSc2n[nH]c(-c3ccccc3)n2)[nH]c2ccccc12,-18.6%,-18.0%
Cc1cccc(OCCn2c(CCNC(=O)C3CCCCC3)nc3ccccc32)c1,11.9%,-13.9%
CN(C)S(=O)(=O)c1cccc(NC(=O)CN2C(=O)NC3(CCc4ccccc4C3)C2=O)c1 (stereo not drawn),-8.0%,-1.6%
Cc1c(C(=O)Nc2ccc(Br)cc2F)oc2ccc(S(=O)(=O)N3CCC4(CC3)OCCO4)cc12,-12.7%,-18.6%
CCOC(=O)c1ccc(COC(=O)CNC(=O)CNC(=O)Cc2ccccc2)cc1,i,-8.8%
CC(=O)c1ccc(OCCOc2ccc(Cl)c3cccnc23)cc1,i,-5.0%
CCC1(CC)SCCNC1=O,i,-13.2%
Cc1cc(C)cc(NC(=O)c2cc(C)n(Cc3cccs3)c2C)c1,4.4%,0.0%
O=C(NCC1(c2ccccc2)CCCC1)C(=O)Nc1cccc(Br)c1,-9.3%,-5.3%
Cc1ncc2c(c1CNC(=O)c1ccc3c(c1)OCO3)CCN(C(=O)c1ccoc1)C2,-9.6%,1.6%
COc1ccc(-c2ccc(-c3nc4c(c(=O)[nH]c(=O)n4Cc4ccccc4)n3C)o2)c([N+](=O)[O-])c1,-7.1%,4.3%
COc1ccc(-n2c(C)cc(/C=C3/SC(=S)N(C)C3=O)c2C)cc1,-0.8%,-3.5%
Cc1[nH]c(=O)c(C(=O)c2cc(Cl)ccc2O)cc1C(=O)O,i,-5.0%
COc1cc(OC)cc(C(=O)N[C@H](C(=O)NC2CCCc3ccccc32)C(C)C)c1 (stereo partly drawn),0.0%,-18.3%
O=C(c1ccco1)N1CCN(C2=NS(=O)(=O)c3ccccc32)CC1,.,-14.7%
COc1ccc(C(=O)N(C)[C@H]2C[C@H]3c4[nH]c5ccccc5c4CCN3C[C@H]2[C@H](C)O)cc1,i,2.2%
Cc1ccc(CNS(=O)(=O)c2ccc3[nH]c4c(c3c2)CCCCC4)cc1,-11.2%,-5.0%
O=C(/C=C/Sc1ccccc1)c1ccc(Cl)cc1,-14.1%,-3.6%
CSc1ccc(CN(C)C(=O)COc2ccc(C(=O)c3ccccc3)cc2)cc1,?,-28.9%
CCCn1c(=O)c2ccccc2n2c(SCc3cc(=O)oc4ccc5ccccc5c34)nnc12,1.8%,3.0%
CCCCn1nnnc1C(c1cc2ccccc2o1)N1CCN(CC(=O)NC(C)C)CC1 (stereo not drawn),-3.0%,-1.4%
CC(=O)c1c(C)n([O-])c2cc(C)ccc2[n+]1=O,.,-8.7%
COc1ccc(-c2nnc(SCC(=O)Nc3cccc(Cl)c3C)nc2-c2ccc(OC)cc2)cc1,-8.0%,-13.8%
COc1ccc(CN2C(=O)N(c3ccc(OC)cc3)C(=O)C2CC(=O)Nc2ccccc2)cc1 (stereo not drawn),i,-16.4%
COc1ccc(C2(C)CC(C)(C)Nc3ccccc32)cc1 (stereo not drawn),?,-6.6%
COCCCNC(=O)c1ccc(C(=O)NCCCOC)cc1,-10.4%,-3.3%
O=C(NS(=O)(=O)Oc1ccc(Cl)cc1)OC[C@@H]1CCCN2CCCC[C@H]12,-9.5%,-4.6%
CCOc1ccc(-n2c(SCC(=O)NC(C)CC)nc3n[nH]c(C)c3c2=N)cc1 (stereo not drawn),.,?
CC(=O)Nc1ccc2c(c1)C(=Nc1ccc(C)cc1)c1ccccc1-2,-9.7%,-10.4%
CC1CCN(S(=O)(=O)c2ccc(C(=O)N3CCCC(C(F)(F)F)C3)cc2)CC1 (stereo not drawn),-10.4%,-22.0%
Cc1cc(-c2ccccc2)n2nc(C)c(-c3ccccc3)c2n1,.,-10.6%
CCNc1nc(NCC)n2c(SCC(=O)Nc3ccc(F)cc3)nnc2n1,-9.4%,4.4%
O=C(NCCCCc1ccccc1)C12CN(Cc3ccccc3)CC1C(c1ccc([N+](=O)[O-])cc1)=NO2 (stereo not drawn),?,-22.0%
O=C(Cc1cc(=O)oc2cc(O)ccc12)NC(Cc1ccc(Cl)cc1)C(=O)O (stereo not drawn),i,-13.5%
CCOC(=O)c1c(NC(=O)CSc2nccc(=O)[nH]2)sc(C)c1C,-15.7%,-19.6%
O=C(CNc1ccc2c(c1)OCO2)N/N=C\c1cn(Cc2ccccc2)c2ccccc12,?,-15.7%
Cc1cccnc1NC(=O)c1ccc(NS(=O)(=O)/C=C/c2ccccc2)cc1,-23.6%,-3.2%
COc1ccccc1CCC(=O)Nc1ccc(S(=O)(=O)Nc2nccs2)cc1,-17.5%,-8.1%
CC(C)NC(=O)COc1ccc(OCc2ccccc2)cc1,-4.8%,-13.3%
Cc1ccc(S(=O)(=O)c2nc(NCCCn3ccnc3)sc2Cl)cc1,.,-10.7%
COc1cc(/C=N/NC(=O)CSc2n[nH]c(=O)[nH]c2=O)cc(OC)c1O,-17.0%,-14.7%
O=C1C=C(c2ccc(C(=O)O)cc2)C[C@@H](c2ccc(F)cc2)C1,i,-13.2%
COc1cccc(NC(=S)NC(Cc2ccccc2)c2ccccc2)c1 (stereo not drawn),-3.5%,-15.5%
CC(C)COCC1CC2(CC(C)(c3csc(N)n3)OC2=O)C(=O)O1 (stereo not drawn),-1.6%,1.5%
O=C(Nc1nnc(S(=O)(=O)N2CCCC2)s1)c1ccccc1Cl,-13.8%,-11.4%&-11.5%
CS(=O)(=O)N(Cc1ccc(C(=O)NCc2ccco2)cc1)c1ccccc1,-16.7%,-5.8%
NCCCC[C@H]1CNC(=O)C(=O)N1CCc1cccc2ccccc12,i,-1.8%
COCc1cccc(-c2csc(C(O)c3cccc(OC)c3)n2)c1 (stereo not drawn),-13.2%,-1.3%
CCOC(=O)C1CCN(S(=O)(=O)c2cccc(-c3cn4cccnc4n3)c2)CC1,.,-13.9%
O=C(NCc1csc(-c2cccs2)n1)c1cccc(Cl)c1,-9.5%,-22.9%
COC(=O)[C@H](C(C)C)N(Cc1ccccc1)S(=O)(=O)CCN1CCCC1,-18.6%,?
COc1cc2cc(CCOC(=O)c3ccc(C(F)(F)F)cc3)oc(=O)c2cc1OC,i,-9.3%
Clc1c(Cl)c(Cl)c2n[nH]nc2c1Cl,-10.7%,-6.2%
Cc1ccc(NC(=S)N(CCN(C)C)C(C)c2cccnc2)cc1 (stereo not drawn),-0.6%,-1.3%
CC(CO)(CO)NCc1ccc(-c2ccccc2)cc1,i,-14.8%
CS(=O)(=O)N(CCc1ccccc1)CC(=O)Nc1ccccc1,i,-10.6%
O=C(CCOc1ccccc1)N(Cc1cccnc1)c1nc2ccc(F)cc2s1,i,-12.9%
Cc1cccc2sc(NC(=O)CN3C(=O)NC4(CCCC4)C3=O)nc12,-15.3%,-7.7%

In another format: entries from further up.
> O=C(CNc1ccc2c(c1)OCO2)N/N=C\c1cn(Cc2ccccc2)c2ccccc12
- VACV mCherry inh = ?
- VACV Venus inh = -15.7%
> Cc1cccnc1NC(=O)c1ccc(NS(=O)(=O)/C=C/c2ccccc2)cc1
- VACV mCherry inh = -23.6%
- VACV Venus inh = -3.2%

Further results.
SMILES,VACV mCherry inh,VACV Venus inh
CC1(C)CC(=O)C(C=NCCCN2CCCC2=O)=C(O)C1,-11.5%,-5.5%
CCOc1ccc(C(C)=O)cc1CN1C(=O)c2ccccc2S1(=O)=O,-19.4%,-10.1%
O=Cc1cc(-c2ccccc2)[nH]c1-c1ccccc1,i,-10.7%
Cn1c(=O)c2cc(C(=O)N3CCN(c4ccc(Cl)cc4)CC3)sc2c2ccccc21,?,-19.7%
Cc1ccccc1S(=O)(=O)N1[C@@H](c2ccc(Cl)cc2)C(C(=O)O)=CC[C@H]1c1ccc(Cl)cc1,-6.2%,-24.9%
O=C(CNC(=S)N(CCCN1CCOCC1)Cc1cccs1)N1CCOCC1,-15.9%,-18.3%
COc1cccc(NC(=O)CSc2nc3ccccc3c(=O)n2CCCC(=O)NCCCN2CCOCC2)c1,0.1%,5.5%
COc1ccc(NC(=O)CCC2COc3ccccc3O2)c(OC)c1 (stereo not drawn),.,-20.3%
C=CCn1c(C)nnc1SCC(=O)c1c(N)n(C2CC2)c(=O)[nH]c1=O,-15.0%,-10.6%
CCOC(=O)N1CCN(Cc2nc(N)nc(Nc3ccc(OC)cc3)n2)CC1,-20.1%,-13.6%
CSCCC(NS(=O)(=O)c1ccc2c(c1)oc(=O)n2C)C(=O)Nc1ccc(Cl)cc1 (stereo not drawn),-10.1%,-3.0%
Cc1ncc([N+](=O)[O-])n1Cc1ccccc1,-6.3%,4.8%
COc1ccccc1-c1cc(C(=O)NCc2ccco2)no1,-20.6%,-18.9%
COc1ccc(C(C)(O)c2nc(-c3cccc(O)c3)cs2)cc1 (stereo not drawn),-3.3%,-24.0%
CCCc1nnc(NC(=O)CCC(=O)O)s1,2.6%,-3.2%
COCCCN1C(=O)C(CC(=O)NC(c2ccccc2)c2ccccc2)CC(C(=O)N2CCCCCC2)=C1C (stereo not drawn),-0.2%,3.9%
O=C(CSc1ccc(Br)cc1)NC1CCCCCC1,i,-15.6%
CCOc1ccc(NS(=O)(=O)c2ccc(C(=O)NCCN3CCOCC3)cc2)cc1,i,-17.8%
CC1(C)NC(=O)N(CC(O)COc2cc3ccccc3cc2C(=O)N2CCCCC2)C1=O (stereo not drawn),.,-16.3%
Cc1ccc(OCC(=O)N2CCCCCCC2)cc1C,i,-7.8%
C/C(=N\NC(=O)CNc1ccc(F)cc1)c1cc2ccccc2o1,-22.4%,-28.1%
COc1ccc(CC(=O)NNS(=O)(=O)c2ccc(F)cc2)cc1OC,i,-14.3%
COC(=O)c1ccc(N/N=C/c2cc([N+](=O)[O-])cc(OC)c2O)cc1,-9.1%,-2.1%
CCS(=O)(=O)N1CCc2cc(C(=O)Nc3ccc(C(=O)OC)cc3)ccc21,-18.8%,-10.3%
O=C(Nc1ccccc1)N(Cc1ccc(Cl)cc1)CC(O)C(F)(F)F (stereo not drawn),-11.5%,-21.6%
COc1ccccc1C1CC(=O)N(c2cccc(C(F)(F)F)c2)C2=C1C(=O)OC2 (stereo not drawn),-14.2%,-9.1%
CC1=C(C(=O)OC(C)(C)C)C(c2ccc3ccccc3c2)NC(=O)N1C (stereo not drawn),i,-3.3%
COc1ccc(S(=O)(=O)NCc2cccnc2)cc1NC(=O)c1ccccc1,-8.3%,-8.6%
O=C(CN1C(=O)C2CC=CCC2C1=O)N1CCN(c2ccc([N+](=O)[O-])cc2)CC1 (stereo not drawn),-11.3%,-2.1%
CCOCCCn1c(N)c(C(=O)Nc2sc3c(c2C(=O)OC)CCCC3)c2nc3ccccc3nc21,?,-13.0%
O=C(COc1ccc(-n2cnnn2)cc1)NC(=O)NCc1ccccc1,-14.9%,-10.6%
Cc1cc(N2CCCCC2)ccc1C=C1C(=O)N(C)C(=S)N(C)C1=O,43.6%[activator],59.4%[activator]
O=C1Nc2cc(Cl)c(Cl)cc2N(O)N1c1cc(Cl)cc(Cl)c1,-12.7%,-6.6%
N#Cc1nc(COc2ccc(F)cc2)oc1N1CCCCC1,-7.2%,10.3%
COc1cccc(CN(C)C(=O)c2ccc(OCC(=O)Nc3cccc(C(F)(F)F)c3)c(OC)c2)c1,?,?
COc1ccc(N2CCN(C(c3cccs3)C(C)NS(=O)(=O)c3ccccc3)CC2)cc1 (stereo not drawn),i,-27.8%
Cc1ccc(C)c(OCC(=O)Nc2ccc3c(c2)OCO3)c1,-19.6%,-8.2%
Cc1cc(C)cc(NC(=O)CCS(=O)(=O)c2cc3c4c(c2)CCN4C(=O)CC3)c1,-7.3%,5.2%
O=C(O)c1cccc(-n2cccc2/C=C2/SC(=O)N(CC(=O)N3CCCC3)C2=O)c1,-9.3%,-1.0%
O=C(Cn1cc(C(F)(F)F)ccc1=O)N/N=C/c1cccc(Cl)c1,-4.6%,3.9%
COc1ccc(/C=C/c2nc(N)nc(-c3ccccc3O)n2)cc1,-9.4%,0.0%
COCc1cc(=O)n2[nH]c(-c3ccc(C)cc3)cc2n1,-8.1%,0.7%
O=C(CN(C(=O)CCC(=O)Nc1ccccn1)c1cccc(F)c1)NCc1ccc2c(c1)OCO2,i,-9.0%
O=C(OCC(=O)N1CCCC1)c1c2c(nc3ccccc13)CCCCC2,i,-15.5%
O=C(CCCc1ccccc1)NCCS(=O)(=O)N1CCN(c2ccc(F)cc2)CC1,-5.7%,-22.7%
COc1ccc(-c2csc(NCc3ccco3)n2)cc1C,.,-22.1%
COc1ccccc1NC(=O)C(=O)NCCC1CCCCN1S(=O)(=O)c1ccccc1 (stereo not drawn),-25.0%,-25.6%
O=S(=O)(c1ccc(F)cc1)N1CCCC(c2nc(-c3ccc(F)cc3)no2)C1 (stereo not drawn),-7.9%,-16.2%
CC(NC(=O)COc1ccc(-c2nnco2)cc1)c1ccc(Cl)cc1Cl (stereo not drawn),-21.2%,-17.6%
